Screens (PubChem BioAssay)
PV pol inh = inhibitors of poliovirus RNA polymerase binding and polymerization. P03300. poliovirus polymerase elongation, fluorescence polarization; stronger effect = lower value. % elongation, % (compound at 16.7 µg/mL). hit rate 0.66% among 150,000; in the data active = % elongation below about 90%; note: some results filed as inactive read as strong as hits
Target sequence (P03300 1749-2209 limits assumed): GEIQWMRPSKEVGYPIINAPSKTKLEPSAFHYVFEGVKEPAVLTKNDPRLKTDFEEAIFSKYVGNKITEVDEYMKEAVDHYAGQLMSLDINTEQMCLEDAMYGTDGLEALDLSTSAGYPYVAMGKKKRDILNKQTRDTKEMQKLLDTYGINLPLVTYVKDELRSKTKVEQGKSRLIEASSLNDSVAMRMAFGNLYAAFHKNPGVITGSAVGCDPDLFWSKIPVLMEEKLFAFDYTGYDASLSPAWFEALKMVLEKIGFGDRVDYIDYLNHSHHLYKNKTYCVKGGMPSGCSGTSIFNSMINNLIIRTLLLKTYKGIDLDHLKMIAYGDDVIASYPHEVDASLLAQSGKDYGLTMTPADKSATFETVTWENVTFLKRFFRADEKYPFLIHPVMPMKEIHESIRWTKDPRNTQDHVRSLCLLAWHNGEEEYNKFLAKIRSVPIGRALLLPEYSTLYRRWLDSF
PV pol inh intensity = recorded beside PV pol inh, whose call it bears; % elongation; measured here: total intensity read-out; formula for this scale not given here;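 total fluorescence in place of polarization; lower means less elongation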
Active calls of the source: *. The list is partial; the hit share may differ from the screen's.

SMILES	PV pol inh	PV pol inh intensity
Cc1ccc(CNC(=O)c2c(-c3ccc(Br)cc3)noc2C)o1	103	107
COc1ccccc1NC(=O)C1=C(C)Nc2nc(-c3ccco3)nn2C1c1ccccc1F (stereo not given)	105	109
CCC(Sc1nnc2c3ccccc3n(C)c2n1)C(=O)Nc1nnc(C(C)C)s1 (stereo not given)	103	108
COc1ccccc1CN1CCC(CNS(=O)(=O)c2cc(-c3onc(C)c3C)ccc2OC)CC1	110	109
CS(=O)(=O)N1CCc2cc(S(=O)(=O)NCc3ccccc3Cl)ccc21	106	110
CCN(C(=O)c1nn(-c2ccc(OC)c(Cl)c2)c(=O)c2c1c1ccccc1n2C)c1cccc(C(F)(F)F)c1	108	112
COc1cccc(CNC(=O)CN2C(=O)N(c3c(C)cccc3C)S(=O)(=O)c3ccccc32)c1OC	99	108
COc1ccc2c(c1)CC(C(=O)Nc1cc(OC)c(OC)c(OC)c1)CO2 (stereo not given)	106	113
O=C(CSc1nc(-c2ccccc2)no1)N1CCN(c2ccccc2)CC1	106	114
O=C(c1ccc2c(c1)N(Cc1cccc(Cl)c1)C(=O)c1ccccc1S2(=O)=O)N1CCCC1	101	108
Cc1ccc(NC(=O)Cn2cc(C(=O)C3CC3)c3ccccc32)c(C)c1	102	105
CCCn1cc(S(=O)(=O)c2ccccc2)c(=O)c2cc(F)c(N3CCCC3)cc21	107	111
Cc1cccc(C(=O)Nc2nnc(S(=O)(=O)N(C)Cc3ccco3)s2)c1	100	104
CC1CCN(C(=O)CN2CC(C)Sc3ccccc32)CC1 (stereo not given)	105	109
O=C(OCc1cc(=O)n2nc(C3CC3)sc2n1)c1ccc(NC(=O)c2ccccc2Cl)cc1	115	124
CCC(C)NC(=O)CSc1nc2cc3c(cc2c(=O)n1CCCC(=O)NCCc1ccc(OC)c(OC)c1)OCO3 (stereo not given)	103	105
Cc1ccc(Cl)cc1N1CCN(C(=O)Cn2nc(C)c3sc4ccccc4c3c2=O)CC1	113	118
CCNc1cc(N2CCN(C3CCCCC3)CC2)c2noc3c2c1C(=O)c1ccccc1-3	102	103
Cc1nn(C)c2c1c(C(F)(F)F)cc(=O)n2CC(=O)NC(C)(C)C	109	107
COc1ccc(Cl)cc1NC(=O)CSC1=Nc2ccccc2C2=NC(CCC(=O)NCc3ccco3)C(=O)N12 (stereo not given)	117	118
CCOC(=O)CSc1nc(-c2ccc(OCC)cc2)cc(C(F)(F)F)c1C#N	110	130
CCc1ccc(-c2cn3c(n2)sc2cc(C(=O)NCCc4ccc(OC)cc4OC)ccc23)cc1	115	114
Cc1ccc(C)c(Nc2cc(C(=O)NCCCN(C)C3CCCCC3)c3ccccc3n2)c1	105	108
Cc1cccc(C)c1NC(=O)CN(C)S(=O)(=O)c1ccc2c(c1)n(C)c(=O)c(=O)n2C	99	104
Cc1ccc(CNC(=O)C2CCCN(S(=O)(=O)c3ccc4c(ccn4C)c3)C2)cc1 (stereo not given)	107	115
CSc1ncc(C(=O)Nc2cccc(C)c2C)c(-c2ccccc2)n1	105	114
CCn1cc(C(=O)NCCCOC)c(=O)c2cc(S(=O)(=O)N3CCc4ccccc4C3)ccc21	107	110
CCOC(=O)c1c(C)[nH]c(C)c1S(=O)(=O)N1CCC(C(=O)Nc2ccc(C)c(Cl)c2)CC1	104	108
Cc1ccc(-n2nc(C(=O)Nc3ccc(F)cc3Cl)c(=O)n(C)c2=O)cc1	108	101
Cc1nc(-c2ccc(C)c(N3CCN(C(=O)Nc4ccccc4C(F)(F)F)CC3)c2)no1	110	115
Cc1ccc(Nc2cc(C(=O)NC3CCCC3)c3ccccc3n2)cc1C	103	105
Cc1ccc(S(=O)(=O)N2CCCc3cc(NC(=O)c4c(F)cccc4F)ccc32)cc1	102	103
Cc1cccc(NC(=O)COC(=O)CCCC2=NS(=O)(=O)c3ccccc3N2)c1	111	116
CC(C)c1ccc(NC(=O)c2cc(S(=O)(=O)NCc3ccccc3Cl)ccc2F)cc1	108	114
COc1ccc(-c2csc(=Nc3ccccc3)n2CCO)cc1F	106	105
COc1ccc(CCNC(=O)Cc2c(C)c3cc4c(C)coc4c(C)c3oc2=O)cc1	108	102
Cc1cccc(-c2noc(-c3ccccc3NC(=O)C3CC(=O)N(c4ccccc4C)C3)n2)c1 (stereo not given)	107	108
Cc1cc(OCC(=O)Nc2sc3c(c2C#N)CCC(C)C3)ccc1Cl (stereo not given)	109	111
O=C(Nc1ccccc1C(F)(F)F)Nc1c[nH]c(=O)[nH]c1=O	109	103
Nc1nonc1-c1nc2ccccc2n1CC(=O)Nc1ccc(F)cc1	105	104
CCOC(=O)c1cnc2ccc(OC)cc2c1Nc1cccc(C(C)=O)c1	99	102
O=C(CSc1c2c(nc3ccc(Cl)cc13)CCCC2)N1CCN(c2cccc(Cl)c2)CC1	100	100
COc1cc(-c2cc(OC)c3c(C)oc(C)c3c(=O)c2)ccc1OC(=O)c1cccc(C)c1	108	121
COc1ccc(NC(=O)CCc2nnc3n(C)c(=O)c4sccc4n23)cc1Cl	102	93
Cc1cccc(Oc2nc3c(C)cccn3c(=O)c2/C=C(\C#N)c2nc3ccccc3[nH]2)c1	116	158
CCC(Sc1nc2n[nH]c(C)c2c(=N)n1-c1ccc(Br)cc1)C(=O)N(CC)CC (stereo not given)	105	98
O=c1oc2ccc(Br)cc2cc1-c1nc(-c2ccccc2)no1	103	109
COc1ccc(-n2nc3cc(C)c(NC(=O)c4ccc(-c5ccc(Br)cc5)o4)cc3n2)cc1	108	108
Cc1ccc(NCc2cccn2-c2nnc(N3CCC(C(=O)NCCc4ccccc4)CC3)s2)cc1	107	109
O=C(COc1ccccc1Cl)Nc1ccc(-c2nc3ccccc3s2)cc1	107	113

15 entries from above, arranged by molar mass, lowest first:
SMILES	PV pol inh	PV pol inh intensity
O=C(Nc1ccccc1C(F)(F)F)Nc1c[nH]c(=O)[nH]c1=O	109	103
COc1ccc(-c2csc(=Nc3ccccc3)n2CCO)cc1F	106	105
Nc1nonc1-c1nc2ccccc2n1CC(=O)Nc1ccc(F)cc1	105	104
CCOC(=O)c1cnc2ccc(OC)cc2c1Nc1cccc(C(C)=O)c1	99	102
O=c1oc2ccc(Br)cc2cc1-c1nc(-c2ccccc2)no1	103	109
Cc1cc(OCC(=O)Nc2sc3c(c2C#N)CCC(C)C3)ccc1Cl (stereo not given)	109	111
Cc1cccc(NC(=O)COC(=O)CCCC2=NS(=O)(=O)c3ccccc3N2)c1	111	116
COc1ccc(NC(=O)CCc2nnc3n(C)c(=O)c4sccc4n23)cc1Cl	102	93
COc1ccc(CCNC(=O)Cc2c(C)c3cc4c(C)coc4c(C)c3oc2=O)cc1	108	102
Cc1cccc(Oc2nc3c(C)cccn3c(=O)c2/C=C(\C#N)c2nc3ccccc3[nH]2)c1	116	158
COc1cc(-c2cc(OC)c3c(C)oc(C)c3c(=O)c2)ccc1OC(=O)c1cccc(C)c1	108	121
Cc1cccc(-c2noc(-c3ccccc3NC(=O)C3CC(=O)N(c4ccccc4C)C3)n2)c1 (stereo not given)	107	108
CC(C)c1ccc(NC(=O)c2cc(S(=O)(=O)NCc3ccccc3Cl)ccc2F)cc1	108	114
CCC(Sc1nc2n[nH]c(C)c2c(=N)n1-c1ccc(Br)cc1)C(=O)N(CC)CC (stereo not given)	105	98
O=C(CSc1c2c(nc3ccc(Cl)cc13)CCCC2)N1CCN(c2cccc(Cl)c2)CC1	100	100

(further entries)
SMILES	PV pol inh	PV pol inh intensity
Cc1c(C(=O)NCc2ccccc2Cl)sc2ncnc(N(C)C3CCCCC3)c12	108	105
Cc1ccc(C)c(Cn2c(=O)n(CCCC(=O)NCCc3ccc(Cl)cc3)c(=O)c3ccccc32)c1	102	103
Cc1ccc(NC(=O)c2ccc(=O)n(CC(=O)Nc3cccc(C)c3)n2)cc1	108	110
COCCCN(Cc1ccco1)C(=O)c1cc2c(s1)-c1ccccc1OC2	108	106
Cc1ccc2oc(=O)c3cnn(CC(=O)N4CCN(c5ccc(F)cc5)CC4)c3c2c1	101	106
COc1cccc(CNC(=O)CC(c2ccc(C)cc2)N2Cc3ccccc3C2=O)c1 (stereo not given)	109	105
CC(C)c1ccc(OCC(=O)N(Cc2cccs2)C2CCS(=O)(=O)C2)cc1 (stereo not given)	107	107
COc1cccc(-n2ccnc2SCC(=O)Nc2cccc3ccccc23)c1	107	96
Cc1cccc(Cn2c(CNC(=O)c3ccccc3)nc3ccccc32)c1	114	116
CCC(Sc1nc2cc(OC)c(OC)cc2c(=O)n1Cc1ccc(OC)cc1)C(=O)NCCOC (stereo not given)	110	116
Cc1ccc(S(=O)(=O)Cc2nc(-c3ccc(C(=O)NCCCOC(C)C)cc3)oc2C)cc1	111	113
CC(C)c1ccc(NC(=O)Cn2nnc(C(=O)NCc3ccc4c(c3)OCO4)c2N)cc1	109	113
COc1ccc(CNC(=O)C(C)N2Cc3ccccc3C2=O)cc1 (stereo not given)	102	105
O=C(COc1ccc(F)cc1)NCc1ccc2c(c1)CCN2C(=O)c1ccc(F)cc1	101	107
Cc1cccc(C2C=C(c3ccc(F)cc3)Nc3nc4ccccc4n32)c1 (stereo not given)	107	109
COc1c(Cl)cc(C(=O)Nc2cccc(-c3nc4ccccc4[nH]3)c2)cc1Cl	108	111
Cc1cc(C)cc(NC(=O)CCCn2c3ccccc3c(=O)c3ccccc32)c1	109	113
CCOc1ccc(NC(=O)C2CCC(CNS(=O)(=O)c3ccc(Br)s3)CC2)cc1 (stereo not given)	104	109
Cc1ccc(N2CCN(C(=O)c3nn(C)c4c3CSc3ccccc3-4)CC2C)cc1 (stereo not given)	110	114
COCCNC(=O)CSc1nc2cc3c(cc2c(=O)n1Cc1ccc(C(=O)NCCc2ccc(OC)c(OC)c2)cc1)OCO3	101	107
Oc1cccc(Nc2ncnc3sc4c(c23)CCCC4)c1	103	110
Cc1nc(N2CCCC2)c2c(C(=O)Nc3ccc(Br)cc3F)c(C)oc2n1	105	115
CCc1ccc(NC(=O)CC(c2ccc(C)cc2)N2Cc3ccccc3C2=O)cc1 (stereo not given)	109	99
CCC(C)NC(=O)Cn1c(=O)n(CC2CCC(C(=O)NC)CC2)c(=O)c2sccc21 (stereo not given)	104	106
CCc1ccccc1NC(=O)CSc1nc2c(oc3ccccc32)c(=O)n1-c1ccccc1F	105	108
COc1ccccc1NC(=O)c1sc2nc(-c3cc4cc(Cl)ccc4oc3=O)[nH]c(=O)c2c1C	104	108
COc1cc(Cl)c(C)cc1NC(=O)c1sc2nc(C)cc(C)c2c1N	106	110
Cc1cccn2c(Nc3ccc4c(c3)OCCO4)c(-c3ccc(Br)o3)nc12	103	115
CCOc1ccc(NS(=O)(=O)c2ccc3c4c(cccc24)C(=O)N3)cc1	112	108
CC(=O)Nc1ccc(NC(=O)Nc2sc3nc4n(c(=O)c3c2C)CCC(C)CC4)cc1 (stereo not given)	108	115
CCN(c1ccc(C)cc1C)S(=O)(=O)c1nnc(NC(=O)CC(C)C)s1	106	100
CCc1noc(-c2ccc(NCc3ccccc3)c([N+](=O)[O-])c2)n1	102	111
CCOCCn1c(=O)c2c(nc3n2CCN3c2ccc(C)c(C)c2)n(C)c1=O	104	105
CCN1CCc2nc3sc(C(=O)c4ccc(F)cc4)c(N)c3cc2C1	42	231
Cc1ccc(-n2c(=O)c3ccc(C(=O)NCc4ccccc4Cl)cc3n(CC(=O)Nc3cccc(F)c3)c2=O)cc1	103	106
COc1ccc(C)cc1NC(=O)Cc1c(C(=O)O)c(C)cn1C	108	109
Oc1ccc(Nc2nc3ccccc3n3cnnc23)cc1	104	142
COc1ccc(CCNC(=O)c2c[nH]n3c(=O)c(Cc4ccccc4Cl)c(C)nc23)cc1OC	111	108
O=C(Nc1ccc(Cl)cc1)C1CCN(c2nc3ccccc3nc2C(F)(F)F)CC1	107	115
CC(C)Oc1ccc(CNC(=O)c2cnc3sc(N4CCCCC4)nn3c2=O)cc1	111	109
Cc1ccc(CCNC(=O)c2ccc3[nH]c(C)c(C)c3c2)cc1	109	102
CCC(=O)N1CCc2cc(Br)cc(S(=O)(=O)N3CCC(C(=O)Nc4ccccc4F)CC3)c21	109	109
Cc1ccc(N2C(=O)NC(NS(=O)(=O)c3ccccc3)(C(F)(F)F)C2=O)cc1C (stereo not given)	103	103
CCOC(=O)c1c(Oc2ccc(C(C)=O)cc2)nnc(-c2ccccc2)c1-c1ccccc1	108	115
COc1ccc(C)cc1NC(=O)CSc1nc(=O)n(Cc2ccncc2)c2c1CCC2	108	104
N#Cc1cccc(NC(=O)C2CCN(S(=O)(=O)c3ccc4c(c3)CCCN4C(=O)C3CCC3)CC2)c1	113	114
CCCN1CCc2nc(N3CCN(CC)CC3)ncc2C1	106	108
Cc1ccc(C)c(NC(=O)N2CC=C(c3c[nH]c4ccccc34)CC2)c1	97	287
COc1ccc(-c2cc(C(=O)N3CCCCC3C)no2)cc1OC (stereo not given)	107	109
COc1ccccc1Nc1nn2c(=O)c3ccc(C(=O)N4CCCC(C)C4)cc3nc2s1 (stereo not given)	107	110
Going on with the list:
SMILES	PV pol inh	PV pol inh intensity
CCOc1ccc(S(=O)(=O)N2CCC(N3CCN(Cc4ccc(C)cc4)C(=O)C3=O)CC2)cc1	107	110
Cc1cc(C)cc(NC(=O)CN(c2cccc(C)c2C)S(=O)(=O)c2ccccc2)c1	105	107
CCN1CCN(c2cc3c(cc2F)c(=O)c(S(=O)(=O)c2ccccc2)cn3C)CC1	106	103
CC(C)C(=O)Nc1ccccc1OCc1cc(=O)n2ccccc2n1	102	99
Cc1ccc(CSc2ncc(Cl)c(C(=O)NCc3ccccc3)n2)cc1	109	110
Cc1nn2c(-c3ccco3)ccnc2c1-c1ccc(Br)cc1	108	111
O=C(CSc1ncc2c(n1)-c1cc(Cl)ccc1N(Cc1ccccc1F)S2(=O)=O)Nc1cccc(C(F)(F)F)c1	111	115
CC(=O)N1c2ccccc2C(=O)C1N1CCN(c2ccccc2)CC1 (stereo not given)	111	114
CC(=O)c1cccc(NC(=O)C(C)n2c(=O)cc(C)c3c(C)nn(-c4ccccc4)c32)c1 (stereo not given)	111	110
N#Cc1cccc(Nc2ncnc3c2cnn3-c2cccc(Cl)c2)c1	117	114
N#Cc1cccc(NC(=O)C2CCN(S(=O)(=O)c3ccc4[nH]c(=O)ccc4c3)CC2)c1	109	117
